VDR inh: Inhibitors of the vitamin D receptor (VDR): qHTS | Potency, µM, without a hit: max response, negative = inhibition, hits mostly inhibitors | Vitamin D3 receptor (Homo sapiens), P11473 | VDR-SRC2-3 peptide fluorescence polarization, 2 h | 400,000 compounds, 0.93% hits; active means well fitted inhibition curve with a large enough effect; inconclusive means small, poorly fitted or top-dose-only effect, or another doubt; inactive means no such curve, though single readings can be large or run the other way; further: series mostly up to about 120 µM
Target sequence (P11473 whole entry, looked up): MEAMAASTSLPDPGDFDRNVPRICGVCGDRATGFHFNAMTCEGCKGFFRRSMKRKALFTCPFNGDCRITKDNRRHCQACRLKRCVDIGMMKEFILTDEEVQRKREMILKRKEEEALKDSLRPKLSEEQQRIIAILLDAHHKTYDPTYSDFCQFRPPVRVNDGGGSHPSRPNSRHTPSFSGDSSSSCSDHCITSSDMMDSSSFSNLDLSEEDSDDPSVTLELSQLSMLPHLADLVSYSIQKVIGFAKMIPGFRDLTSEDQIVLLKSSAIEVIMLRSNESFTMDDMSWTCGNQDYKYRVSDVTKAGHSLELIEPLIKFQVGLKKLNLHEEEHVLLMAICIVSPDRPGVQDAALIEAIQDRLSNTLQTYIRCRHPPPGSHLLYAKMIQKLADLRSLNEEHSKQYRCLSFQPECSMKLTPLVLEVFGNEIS
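Reagent solutions, kept cold and dark, are dispensed first; compounds are then pinned in at 23 nl, plates briefly spun, and incubated 2 h at ambient temperature. Inhibition of VDR–SRC2-3 peptide binding is read by fluorescence polarization.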
* hit, by the source's call; ? = inconclusive; & = joins results of further samples. On the % scale 0 is the no-effect control and ±100 the full control effect; potency means the concentration at half of the fitted maximal effect. This is a subset (hit frequency here may not be typical).

SMILES | VDR inh
Nc1cc(N)nc(SCCOc2ccccc2F)n1 | 20%
CC1=C(C(=O)OCC2CCCO2)C(c2ccsc2)C2=C(CCCC2=O)N1 (stereo not drawn) | -5%
CCc1nc(Cl)c(C#N)c2c1CCCC2 | -13%
O=C(O)c1ccc(Cl)c(S(=O)(=O)Nc2ccc3cn[nH]c3c2)c1 | -9%
COP(=O)(OC)c1nc(-c2ccccc2)oc1N1CCOCC1 | -14%
CCOC(=O)C(=O)N(Nc1ccc(C)cc1)c1ccc(C)cc1 | 25%
O=C(CN1C(=O)c2cccnc2Oc2ccc(Cl)cc21)NCCCN1CCCCC1 | 1%
CC(C)[C@H]1c2ccc(F)cc2CC[C@@]1(CCN(C)CCCc1nc2ccccc2[nH]1)OC(=O)C1CC1 | -27%
CN(N=O)C(=O)N[C@H]1C(O)C(O)C(CO)O[C@@H]1O (stereo partly drawn) | -11%
CCCNC(=O)COc1coc(CN2CCN(c3ccccc3)CC2)cc1=O | -10%
Cc1ccc(N2C(=O)Nc3ccccc3C2(O)C(=O)NCCCOC(C)C)cc1C (stereo not drawn) | 6%
Cc1nc2nc(CC(=O)O)[nH]n2c(=O)c1[N+](=O)[O-] | 4%
O=C(COC(=O)[C@H](Cc1ccccc1)NC(=O)c1cccs1)Nc1ccccc1C(F)(F)F | -7%
COc1ccc(N2CCN(C(=O)c3ccc4c(c3)N(Cc3cccc(Cl)c3)C(=O)c3ccccc3S4(=O)=O)CC2)cc1 | 11%
CN(C(=O)Nc1ccccc1)C1CCCCC1 | -3%
O=c1c2ccccc2c(/C=N/NS(=O)(=O)c2ccccc2)c(O)n1-c1ccccn1 | 5%
Cc1ccnc(NS(=O)(=O)c2ccc(NC(=O)c3ccc(S(=O)(=O)N4CC(C)OC(C)C4)cc3)cc2)n1 (stereo not drawn) | -4%
CCSC1=N/C(=C\c2ccc(C(=O)O)cc2)C(=O)S1 | -6%
OC(CN1C2=NCCN2c2ccccc21)c1ccc2c(c1)OCO2 (stereo not drawn) | 12%
CN(C)S(=O)(=O)c1ccc(S(=O)(=O)N2CCCC(C(=O)NC3CCCC3)C2)cc1 (stereo not drawn) | -12%
OC(CCc1ccncc1)c1ccccc1 (stereo not drawn) | -5%
CC(C)(C)[C@@H]1C=C(C(=O)NC2CC2)O[C@H](OCc2ccc(CO)cc2)C1 | -36%
Cc1cc(C)nc(N/N=C/c2cccc([N+](=O)[O-])c2)n1 | 6%
CCOc1ncccc1C(=O)OCC(=O)NCc1ccc2c(c1)OCO2 | -4%
COc1ccc(-n2c(Cc3cccn3C)nnc2SCC(=O)Nc2cccc(F)c2)cc1 | 3%
COc1ccc(OCc2nnc(SCC(=O)NC3CC4CCC3C4)o2)cc1 (stereo not drawn) | 3%
CN(C)c1ccc(C(=S)N2CCOCC2)cc1 | -9%
C=CCN(CC=C)Cc1c(C)[nH]c2c(C)c(C)ccc2c1=O | -2%
CC(=O)Nc1ccc(OC(F)(F)Cl)cc1 | -5%
CC(NC(=O)c1cccc(S(=O)(=O)N(C)C)c1)c1nc2ccccc2[nH]1 (stereo not drawn) | 7%
CC(=O)Nc1ccc(NC(=O)Cn2c(=O)n(-c3ccc(C)cc3)c(=O)c3oc4ccccc4c32)cc1 | 2%
COC(=O)CCc1nc2c(C#N)c(-c3ccc(Cl)cc3)ccn2n1 | -8%
C[C@H](C(O)c1ccccc1)N(C)C(=O)CN (stereo partly drawn) | -6%
c1ccc(CSc2ncnc3ccccc23)cc1 | -1%
Cc1ccc(C(=O)N/C(=C\c2ccc(-c3ccccc3[N+](=O)[O-])o2)C(=O)NCCCN(C)C)cc1 | 10%
CC1(OC(=O)CCc2ccccc2)C(=O)C=C2C=C(c3ccc(C#N)cc3)N(C3CCCCC3)C=C2C1=O (stereo not drawn) | ?
Brc1ccc(-c2noc(COc3ccc4c(c3)CCC4)n2)o1 | -3%
CCOC(=O)N1CCN(C(=O)c2cn(CC)c3ccc(S(=O)(=O)N4CCOCC4)cc3c2=O)CC1 | -5%
CCC(C)(C)NC(=O)C(c1ccco1)N(C(=O)c1csnn1)c1cccc(F)c1 (stereo not drawn) | -27%
CCCc1ccc(OC(=O)c2ccc(O)cc2Cl)cc1 | 10%

Quoted from the listing:
VDR inh, CC(=O)Nc1ccc(NC(=O)Cn2c(=O)n(-c3ccc(C)cc3)c(=O)c3oc4ccccc4c32)cc1 = 2%
VDR inh, c1ccc(CSc2ncnc3ccccc23)cc1 = -1%

In another format: results already given.
VDR inh	SMILES
?	CC1(OC(=O)CCc2ccccc2)C(=O)C=C2C=C(c3ccc(C#N)cc3)N(C3CCCCC3)C=C2C1=O (stereo not drawn)
-3%	Brc1ccc(-c2noc(COc3ccc4c(c3)CCC4)n2)o1

Additional results follow.
SMILES | VDR inh
Cc1ccc(C)c(N2CCN(c3ncnc4onc(C)c34)CC2)c1 | 14%
CC(NC(=O)c1ccco1)C(=O)N1CCCCC1 (stereo not drawn) | 8%
O=C(Oc1ccc(Cl)c2cccnc12)c1cccnc1 | 7%
CCc1ccc2c(c1)c(=O)c(C(=O)c1ccc(C)cc1)cn2CC(=O)Nc1ccc2c(c1)OCCO2 | -5%
CC1(C)CC(=O)C=C(Nc2ccccc2N)C1 | 4%
CN(NC1OC(=O)c2ccccc21)c1ncc(C(F)(F)F)cc1Cl (stereo not drawn) | 7%
N#Cc1cccc(NC(=O)NCCc2c[nH]c3ccccc23)c1 | 2%
CCOc1cc(-c2noc(CCC(=O)N3CCOCC3)n2)ccc1OC | 5%
CCC(=O)c1cn(CC(=O)Nc2cccc(OC)c2)c2ccccc12 | 1%
N#Cc1nc(-c2ccc(OCc3ccccc3)cc2)oc1NCCCN1CCOCC1 | 4%

Reprinted at random: 5 entries already listed
SMILES | VDR inh
CC1(C)CC(=O)C=C(Nc2ccccc2N)C1 | 4%
CCc1ccc2c(c1)c(=O)c(C(=O)c1ccc(C)cc1)cn2CC(=O)Nc1ccc2c(c1)OCCO2 | -5%
CC(NC(=O)c1ccco1)C(=O)N1CCCCC1 (stereo not drawn) | 8%
CCOc1cc(-c2noc(CCC(=O)N3CCOCC3)n2)ccc1OC | 5%
O=C(Oc1ccc(Cl)c2cccnc12)c1cccnc1 | 7%

Next structures
SMILES | VDR inh
C=CCc1cc(Cl)ccc1OCCNCCN1CCOCC1 | 6%
C/C(=N/NC(=O)c1cc(C)[nH]n1)c1ccco1 | -6%
CC(C)c1nc(SCC(=O)Nc2ccc3c(c2)OCCO3)c2c(=O)n(C)c(=O)n(C)c2n1 | 3%
CSc1nc2c(cc1C#N)CCC2 | -15%
COc1ccc(CNc2ncnc(N)n2)cc1 | 0%
CCOC(=O)N1CCN(C(=O)c2cnsn2)CC1 | 15%
COc1ccccc1-c1nccc(NCc2cccs2)n1 | ?
O=C(Cc1ccccc1Cl)NCCCn1ccnc1 | 8%
O=C(Nc1cnn(Cc2ccc(F)cc2)c1)C(c1ccccc1)c1ccccc1 | -14%
O=C(O)c1cccnc1SCc1cccc(Cl)c1 | -1%&0%
Cc1ccc(S(=O)(=O)N2CCCC2C(=O)n2nc(C)cc2C)cc1 (stereo not drawn) | -5%
COc1ccc(C(C)NC(=O)C23CC4CC(CC(C4)C2)C3)cc1OC (stereo not drawn) | -15%
CN(Cc1nc(-c2ccc(C(F)(F)F)cc2)no1)C1CCOCC1 | 10%
CCn1c(SCC(=O)OC)nnc1-c1ccccc1 | -9%
O=C(/C=C/c1ccco1)N1CCN(c2ccccc2)CC1 | 0%
O=C(Cn1nc(C(=O)O)c2ccccc2c1=O)NCc1ccco1 | -21%
O=C(Cc1ccc(S(=O)(=O)N2CCOCC2)s1)N(Cc1ccccc1)c1ccccc1 | -4%
COc1ccc(N(CC(=O)N2CCN(c3cc(C)ccc3C)CC2)S(=O)(=O)c2c(C)noc2C)cc1 | 2%&-28%
Cc1ccc(CCNC(=O)C(NS(=O)(=O)c2ccc3c(c2)oc(=O)n3C)C(C)C)cc1 (stereo not drawn) | 8%
O=S(=O)(c1cccs1)N1CN(Cc2ccc(Cl)cc2)c2nc3ccccc3nc21 | -4%
NS(=O)(=O)c1ccccc1NC(=S)Nc1ccccc1S(N)(=O)=O | -6%
O=S(=O)(c1ccccc1Cl)N1CCCC1c1nc(-c2ccc(Cl)cc2)no1 (stereo not drawn) | -5%
NC(N)=NC[C@@H]1COC2(CCCCC2)O1 | -4%
Cc1c(C2(O)CCCCC2)[nH]c2ncccc12 | 6%
O=C(CC1CCCC1)Nc1cccc(Br)c1 | 4%
CCOC(=O)c1c(NC(=O)CC)sc(C(=O)NC2CCCC2)c1C | 6%
O=[N+]([O-])c1ccc(CS(=O)(=O)N2CCN(c3ccccc3)CC2)cc1 | -8%
O=C(COc1ccccc1F)Nc1nnc(S(=O)(=O)N2CCCCCC2)s1 | 13%
CN(N)c1nc(-c2ccccc2)nnc1C(F)(F)F | 12%
O=C(c1ccco1)N1CCN(Cc2cccc3ccccc23)CC1 | 2%
COc1ccc2cc(C(=O)NCC(=O)O)sc(=O)c2c1OC | 4%
Cc1c(C(=O)N(Cc2cccc(Cl)c2)Cc2ccco2)oc2ccccc12 | 2%
c1ccc(Nc2ncnc3ccc(-c4ccoc4)cc23)cc1 | 32µM*
Cn1c(=O)n(C/C=C/c2ccccc2)c(=O)c2c1nc1n2CCCN1c1ccc(F)cc1 | 5%
CCOc1ccccc1CNC(=O)CCc1c(C)nn(-c2ccc(N3CCCC3)nn2)c1C | -3%
Cc1nnc(NC2(C(F)(F)F)C(=O)Nc3c2c(=O)n(C)c(=O)n3C)s1 (stereo not drawn) | 17%
Cc1ccc(OCCNC(=O)CNC(=O)c2ccc(C)c(C)c2)cc1 | 2%
O=c1[nH]c(C(Cl)Cl)nc2sc3c(c12)CCN(Cc1ccccc1)C3 | -26%
CCn1cc(C(=O)N2CCN(c3cccc(C)c3C)CC2)c2cc(OC)c(OC)cc2c1=O | 3%
CCC(C)[C@H](NS(=O)(=O)c1ccc(C)cc1)C(=O)N1CCC(C(=O)N2CCC(C(=O)OC)CC2)CC1 (stereo partly drawn) | -21%
CC(C)[C@@H](N)C(=O)NCC1CCC(C(=O)N[C@@H](Cc2ccccc2)C(=O)O)CC1 (stereo partly drawn) | -16%
C[C@@H](C(=O)NCc1ccccn1)[C@H]1C[C@]1(C)[C@H](NC(=O)OCc1ccccc1)c1ccccc1 | -23%
Cc1cccc(C)c1NS(=O)(=O)c1ccc(NS(=O)(=O)c2ccc3c(c2)OCCO3)cc1 | -17%
O=C(COC(=O)c1n[nH]c2ccccc12)c1ccc(F)c(F)c1 | 10%
CC(=O)C[C@H]1c2cc(C(F)(F)F)ccc2S(=O)(=O)N1Cc1ccccc1 | 9%
CCOC(=O)c1oc2cccc(O)c2c1CN1CCOCC1 | -7%
CCCNC(=O)N1CCN(S(=O)(=O)c2ccc3c(ccn3C)c2)CC1 | -7%
COc1ccc(Oc2nc(-c3ccccn3)ncc2OC)cc1 | 9%
COc1ccc(OC)c(NC(=O)c2oc3ccccc3c2NC(=O)C2CC2)c1 | 4%
COc1ccc(C(=O)Nc2ccnn2C2CCN(Cc3cnn(C)c3)CC2)cc1 | -15%

(list continues)
SMILES | VDR inh
COC(=O)c1sc(NC(=O)COc2ccc(C)cc2)nc1C | 10%
Cc1cc(C)c(NC(=O)COc2cccnc2[N+](=O)[O-])c(C)c1 | -6%
COC(=O)c1cc(OC)c(OC)cc1NC(=S)Nc1cccc(C(C)=O)c1 | -2%
COCCN1C=C(C(=O)OC)C(c2ccc(Cl)cc2)C(C(=O)OC)=C1 | 5%
Cc1ccccc1NC(=O)Cc1nc(COC(=O)c2cc(Br)ccc2O)cs1 | -2%
CN1CCN(c2ncc3nc(-c4ccccc4)c(=O)n(-c4ccccc4)c3n2)CC1 | 1%
CCCCN(CC)CCNC(=O)c1nn(-c2ccc(OC)cc2)c(=O)c2c1c1ccccc1n2C | 12%&-17%
COc1ccc(C2C(C#N)=C(C)NC3=C2S(=O)(=O)c2ccccc23)cc1 (stereo not drawn) | 7%
Cn1c(=O)c(C(=O)NCCCc2ccccc2)c(O)c2ccccc21 | -5%
OCCOc1ccc(CN2CCCC(N3CCN(c4ccc(F)cc4)CC3)C2)cc1 (stereo not drawn) | -13%
S=C1NCN(Cc2ccco2)CN1Cc1ccco1 | -15%
CCn1c(-c2ccccc2)c(C(=O)CC#N)c2ccccc21 | 5%
O=C(CN1CCCC1)N/N=C/c1c(O)ccc2ccccc12 | -17%
O=C(Nc1ccc2c(c1)OCO2)C1CCCN(c2nc3ccccc3s2)C1 (stereo not drawn) | 8%
O=C(NCC(=O)N(c1ccc(F)cc1)C(C(=O)NC1CCCCC1)c1ccncc1)c1ccco1 (stereo not drawn) | -7%
Cc1ccc2nc(Cl)c3cc(C(=O)N4CCCC(C)C4)sc3c2c1 (stereo not drawn) | -5%
CCCCN(C)Cc1cc(=O)oc2cc3c(cc12)CCCC3 | -19%
CCc1nn(CC(=O)NCc2ccccc2)c(=O)c2cccn12 | 7%
O=C(CN1CCN(Cc2ccccc2)CC1)N=Nc1c(O)[nH]c2ccccc12 | -12%
COc1cc(Nc2c3ccccc3nc3ccccc23)cc(OC)c1OC | -1%
COc1ccc(/C=C\C(=O)c2c(O)ccc3c(C)cc(=O)oc23)cc1OC | 4%
COc1ccc(C)cc1NC(=O)CSCc1ccccc1C | -16%
O=C(CCN1C(=O)COc2ccccc21)NCc1ccco1 | 11%
CCCN1CCC(NC(=O)CC2C(=O)NCCN2Cc2cccc(OC)c2)CC1 (stereo not drawn) | -15%
CC(C)NC(=O)N(C)C[C@@H]1Oc2ccc(NC(=O)Nc3ccc(C(F)(F)F)cc3)cc2CC(=O)N([C@H](C)CO)C[C@@H]1C | -8%
CS(=O)(=O)N(CC(=O)N1CCCCCC1)c1cccc(F)c1 | -3%
O=[N+]([O-])c1ccccc1CNc1ccc(F)c(Cl)c1 | -7%
